Bioassay records: PubChem, National Center for Advancing Translational Sciences (NCATS)
VDR inh: Inhibitors of the vitamin D receptor (VDR): qHTS | Vitamin D3 receptor (Homo sapiens), P11473 | VDR-SRC2-3 peptide fluorescence polarization, 2 h | Potency, µM, for the others: max response, negative = inhibition, actives largely listed as inhibitors | actives 0.93% (n = 400,000) | AID 504847, 2011; active = well fitted inhibition curve with a large enough effect; inconclusive = small, poorly fitted or top-dose-only effect, or another doubt; inactive = no such curve, though single readings can be large or run the other way; note: series mostly up to about 120 µM
Target sequence (P11473 whole entry, looked up): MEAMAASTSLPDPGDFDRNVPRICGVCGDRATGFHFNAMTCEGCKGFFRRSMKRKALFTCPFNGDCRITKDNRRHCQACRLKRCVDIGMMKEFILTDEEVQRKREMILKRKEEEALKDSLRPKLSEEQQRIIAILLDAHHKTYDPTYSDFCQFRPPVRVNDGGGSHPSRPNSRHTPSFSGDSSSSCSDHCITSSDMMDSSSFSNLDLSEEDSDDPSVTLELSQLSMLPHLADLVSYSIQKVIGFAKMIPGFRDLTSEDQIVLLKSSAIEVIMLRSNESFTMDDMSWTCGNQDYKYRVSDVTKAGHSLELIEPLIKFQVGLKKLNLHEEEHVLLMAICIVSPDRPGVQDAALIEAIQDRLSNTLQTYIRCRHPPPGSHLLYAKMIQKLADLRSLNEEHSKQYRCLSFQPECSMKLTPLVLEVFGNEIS
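FP read-out; VDR + SRC2-3 coactivator peptide; 23 nl compound by pintool; 2 h RT incubation; reagents held at 4 deg C, protected from light.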
The depositor's hits bear a star; ? = inconclusive; & = joins results of further samples; [ ] = remark or other dose. % is set by controls: 0 for no effect and ±100 for the full control effect; potency is the fitted concentration of half-maximal effect. Only part of the results is shown; count on the stated rates, not on these rows.

molecule	VDR inh
Cc1cccc(Nc2ccc(S(=O)(=O)N3CCOCC3)cc2[N+](=O)[O-])c1	8%
O=S(=O)(CCNC1CC1)NC1CCCCC1	-12%
Nc1nn(-c2ccccc2)c(N)c1N=Nc1ccc2c(c1)OCO2	7%
C[C@@H]1NC(=O)/C(=C\c2ccccc2Br)NC1=O	-26%
O=C(O)C1CCN(S(=O)(=O)c2ccc(Cl)s2)CC1	-2%
Cc1ccc(S(=O)(=O)/C(=C\N(C)C)c2cnc(Cl)s2)cc1	-1%
COCCNC(=O)CN(C(=O)c1ccc(N2CCCC2)nc1)c1ccc(F)c(Cl)c1	-5%
CCN(C1CCCCC1)S(=O)(=O)c1cn(C)c(=O)n(C)c1=O	-15%
COc1ccc(CN2CN(c3ccc(Cl)cc3)C(=O)N(n3cnnc3)C2)cc1	8%
Cc1ccc(CNc2nnnn2C)cc1	-2%
Cc1c(C(=O)NNC(=S)Nc2cccc(Cl)c2)nnn1-c1ccccc1	-16%
CCc1cc2c(SCC(=O)C(C#N)=C3N(C)c4ccccc4N3C)ncnc2s1	2%
Cc1cc(C(=O)NNC(=S)NC(C)c2ccccc2)c2ccccc2n1 (stereo unspecified)	19%
Cc1cc(-c2[nH]nc3c2C(c2ccc(Cl)cc2)C(C#N)=C(N)O3)c(C)s1 (stereo unspecified)	-25%
O=C(NNS(=O)(=O)c1ccccc1[N+](=O)[O-])c1cc2ccccc2cc1O	-12%

Filtered by structure, the compounds so far with a nitro group on carbon
molecule	VDR inh
Cc1cccc(Nc2ccc(S(=O)(=O)N3CCOCC3)cc2[N+](=O)[O-])c1	8%
O=C(NNS(=O)(=O)c1ccccc1[N+](=O)[O-])c1cc2ccccc2cc1O	-12%

Next section
molecule	VDR inh
O=C(CN1CCC(NC(=O)Nc2ccccc2)CC1)Nc1cccc([N+](=O)[O-])c1	-20%
Cc1cccc(CNc2cc(-c3cccc(NS(C)(=O)=O)c3)ncn2)c1	1%
O=C(CCC(=O)OCC(=O)c1ccc(Br)cc1)NC1CCCCC1	-2%
Cc1nc(-c2ccccc2)c(-c2ccccc2)[nH]1	-5%
COc1ccc(N2CCN(c3ncnc4nc[nH]c34)CC2)cc1	-15%
CCOc1ccc(NC(=O)CSc2nnc(-c3ccco3)n2C)cc1	3%
Cc1cccc(C)c1OCc1cc(C(=O)NC2CCC(O)CC2)no1 (stereo unspecified)	0%
CCOC(=O)C1(CCC(=O)OCc2ccccc2)CCCCC1=O (stereo unspecified)	-4%
O=C(Nc1cc2c(cc1Cl)OCCCO2)c1ccccc1	-6%
COc1cc(Cl)c(NS(=O)(=O)c2cc3[nH]c(=O)c(=O)[nH]c3cc2C)c(OC)c1	1%&2%
COc1ncc2nc(-c3cc(F)cc(F)c3)c(=O)n(C)c2n1	3%
COC(=O)CCN(C(=O)c1cccc([N+](=O)[O-])c1)c1ccccn1	-7%
O=C1N[C@@H](c2ccccc2)COC(=O)[C@@H](Cc2ccc(F)cc2)CC/C=C/C[C@@H]1CC(=O)N(CCO)Cc1ccccc1	-11%
Cc1ccc(NC(=S)N/N=C2\CCCCC2C)cc1 (stereo unspecified)	-19%
CC(C)Cc1cc(C(=O)N2CCN(C(c3ccccc3)c3ccccc3)CC2)no1	-13%

Some of these compounds in order of the VDR inh value, falling.
molecule	VDR inh
CCOc1ccc(NC(=O)CSc2nnc(-c3ccco3)n2C)cc1	3%
Cc1cccc(CNc2cc(-c3cccc(NS(C)(=O)=O)c3)ncn2)c1	1%
O=C(CCC(=O)OCC(=O)c1ccc(Br)cc1)NC1CCCCC1	-2%
Cc1nc(-c2ccccc2)c(-c2ccccc2)[nH]1	-5%
COC(=O)CCN(C(=O)c1cccc([N+](=O)[O-])c1)c1ccccn1	-7%
O=C(CN1CCC(NC(=O)Nc2ccccc2)CC1)Nc1cccc([N+](=O)[O-])c1	-20%

Additional compounds.
molecule	VDR inh
CCOCCCNCc1c(Cl)cccc1Cl	-3%
COc1ccc(-n2c(C)nc3cc(C(=O)NCc4ccco4)ccc32)cc1	-13%
COc1ccc(C(=O)OCCN2CCCCC2)cc1	-2%
CC(C)CC(C(=O)NC(=O)NCc1ccccc1)N1C(=O)c2ccccc2C1=O (stereo unspecified)	-21%
CC(Oc1ccc(Br)cc1)C(=O)NCC(c1ccco1)N1CCCCC1 (stereo unspecified)	-15%
O=C(NC1CCN(S(=O)(=O)c2ccc(F)cc2)CC1)c1cccc(F)c1	1%
CNC(=O)CSc1nnc(-c2ccco2)n1-c1ccccc1	3%
C[C@@H]1C(=O)O[C@H]2[C@H](O)[C@@]34[C@H]5C[C@@H](C(C)(C)C)[C@]36[C@@H](OC(=O)[C@@H]6O)O[C@@]4(C(=O)O5)[C@@]12O	21%
Cc1ccccc1CNC(=O)c1cc(COc2ccc(F)cc2F)on1	7%
COC(=O)CC/C(O)=C1/C(=N)CC(C)(C)CC1=O	-2%
O=C(CNS(=O)(=O)c1ccccc1)N1CCN(Cc2ccccc2)CC1	5%
CCCCC(=O)Nc1c(O)c2ccccc2[nH]c1=O	8%
Cc1ccc(S(=O)(=O)c2c(Nc3ccccc3)sc(C(=O)c3ccc4c(c3)OCO4)c2N)cc1	18%
COc1ccc(NC(=O)/C(C#N)=C\c2ccc(-c3cccc(C(=O)O)c3C)o2)cc1	-5%
CC(NC(=O)c1ccc2c(c1)OCO2)C1CCCO1 (stereo unspecified)	?

Reprinted from the part before: four compounds, followed by the next part.
molecule	VDR inh
CCCCC(=O)Nc1c(O)c2ccccc2[nH]c1=O	8%
Cc1ccc(S(=O)(=O)c2c(Nc3ccccc3)sc(C(=O)c3ccc4c(c3)OCO4)c2N)cc1	18%
COc1ccc(NC(=O)/C(C#N)=C\c2ccc(-c3cccc(C(=O)O)c3C)o2)cc1	-5%
CC(NC(=O)c1ccc2c(c1)OCO2)C1CCCO1 (stereo unspecified)	?
COc1ccc(C(c2oc(CO)cc(=O)c2O)c2oc(CO)cc(=O)c2O)cc1	-1%
CCCN(CCC)CCCNC(=O)C1CCC(CNS(=O)(=O)c2ccc(NC(C)=O)cc2)CC1 (stereo unspecified)	7%
O=C(CSc1nnc(NC(=O)Cc2ccc(F)cc2)s1)NCc1ccco1	-5%
COc1ccc(NC(=O)C2CCN(S(=O)(=O)c3c(C)noc3C)CC2)cc1	16%
Cc1oc2c(c(C)cc3oc(=O)c(CC(=O)NCCc4ccccc4F)c(C)c32)c1C	4%
O=C(CC(c1ccccc1)c1ccco1)N1CCOCC1 (stereo unspecified)	-17%
COc1cc(OC)cc(C(=O)NNC(=O)CCC2CCCC2)c1	-1%
O=C(O)c1cncc(SCc2ccccc2)n1	4%
CCOc1ccc(S(=O)(=O)c2cc3cccc(OCC)c3oc2=O)cc1	6%
O=c1cc(O)c2ccccc2n1Cc1ccccc1	-2%
CCCN1C(=O)C(O)(c2c(C)[nH]c3ccccc23)c2ccccc21 (stereo unspecified)	-12%
COc1ccccc1OCc1nc2ccccc2n1C	12%
CCn1c(=O)c(=O)n(CC)c2cc(N3CCCCC3)c(NC(=O)c3cccc(F)c3)cc21	-1%
COc1ccc(OC)c(CNc2ncc(-c3cccc([N+](=O)[O-])c3)n2C)c1	-8%
Cc1cc(C)c2c3c(sc2n1)C(c1cccc(F)c1)C(C#N)=C(N)O3 (stereo unspecified)	-16%
C/C=C/c1ccc(OCC(=O)Nc2ccc(C(N)=O)cc2)c(OC)c1	-17%
CC(C(=O)Nc1ccccc1C#N)N1C(=O)NC2(CCCCCC2)C1=O (stereo unspecified)	1%
Cc1ccc2cccc(NC(=S)NC(=O)c3c(Br)cnn3C)c2n1	-10%
COc1ccc(NC(=O)CN(C)CC(=O)NCC2CCCCC2)cc1	7%
COc1ccccc1/C=C/C(=O)c1cc(Br)ccc1OC(=O)c1ccco1	?
Cc1cccc(-n2ccnc2SCC(=O)Nc2cc(C)on2)c1	-1%
Cc1ccc(C(=O)COC(=O)c2cccc(NC(=O)c3ccc([N+](=O)[O-])cc3[N+](=O)[O-])c2)cc1	14%
O=C(CSc1n[nH]c(=O)[nH]c1=O)N/N=C/C=C/c1ccccc1	-6%
CC1CN(C(=O)COc2ccc3ccccc3c2)CC(C)O1 (stereo unspecified)	-9%
N#CC1=C(N)NC(SCC(=O)Nc2ccccc2)=C(C#N)C12CCCCC2	-27%
CC12CCC(=O)C=C1CCC1C3CC(O)C(O)(C(=O)CO)C3(C)CC(O)C12F (stereo unspecified)	7%
COc1ccc(NC(=O)COC(=O)CC23CC4CC(CC(C4)C2)C3)c([N+](=O)[O-])c1	-21%
O=C(NCCO)c1ccc2c3n(nc2c1)-c1ccccc1CO3	-12%
Cc1ccc(C(=O)c2ccccc2C(=O)OCC(=O)N2CC(C)CC(C)C2)cc1 (stereo unspecified)	-7%
O=C1C2=C(SCCS2)C(=O)N1CCCO	-9%
COc1ccc(N=C2SC(CC(=O)Nc3ccccc3F)C(=O)N2Cc2ccco2)cc1 (stereo unspecified)	-10%
COC(=O)CS(=O)(=O)c1ccsc1C(=O)Nc1ccc(F)c(F)c1	-5%
CCCOc1c(OC)cccc1C1CC(=O)Nc2cc3c(cc21)OCO3 (stereo unspecified)	-8%
O=C(Nc1ccccc1)c1nc[nH]c1C(=O)O	0%
COCCNc1nc(NCc2ccccc2OC)c2cnn(C)c2n1	10%
COc1ccc(-c2nc3c(c4nnc(SC(C)C(=O)Nc5ccc(C)cc5)n24)COC(C)(C)C3)cc1 (stereo unspecified)	-1%
CCN1CNC(=S)N(C(C)c2ccccc2)C1 (stereo unspecified)	-23%
CCc1cccc(N(CC(=O)NC2CCCCC2)C(=O)c2csnn2)c1	-18%
COc1ccc(NC(=O)Cn2nnc(C(=O)Nc3ccccc3C)c2N)cc1	?
O=c1[nH]c(SCc2ccccc2)nc2c1cnn2-c1ccc(F)cc1	1%
Cc1ccc(C(=O)N2CCN(c3cccc(Cl)c3)CC2)cc1C	-9%
Cc1c(Cl)cccc1NC(=O)N1CCN(Cc2cc(=O)n3nc(-c4ccccc4F)sc3n2)CC1	5%
Cc1c(NC(=O)C(C)OC(=O)c2cccc(S(=O)(=O)N(C)C)c2)c(=O)n(-c2ccccc2)n1C (stereo unspecified)	30%
COc1ccc(NC(=O)CNS(=O)(=O)c2cccs2)cc1	-10%
O=C(O)C1Nc2ccc(C(F)(F)F)cc2C2OCCC12 (stereo unspecified)	-9%

The listing continues.
Compound	VDR inh
Cc1[nH]n(-c2ccccc2)c(=O)c1N=Nc1nccs1	-13%
Cc1cc(OCC(=O)N2CCC(C(=O)O)CC2)c2c(C)c(C)c(=O)oc2c1	0%
COc1cccc(OC)c1OCCCCCCN1CCN(C)CC1	-13%
CC(=O)Nc1ccc(NC(=O)C(C)Sc2n[nH]c(=O)n2Cc2ccccc2)cc1 (stereo unspecified)	-1%
Cc1ccc(OCc2nc(-c3ccc(Cl)cc3)n[nH]2)cc1	12%
N#CC1(NC(=O)CSc2nnc(Cc3ccccc3)o2)CCCCC1	-5%
Cc1cccc(N2CC(C(=O)Nc3nnc(SCCN4CCOCC4)s3)CC2=O)c1 (stereo unspecified)	-12%
CCN(CC(=O)NCc1ccc(Cl)cc1)C(=O)c1cccc(S(=O)(=O)Nc2ccc(OC)cc2)c1	15%
Cc1cc(C)n2nc(-c3ccc(F)cc3)nc2n1	5%
Cc1nc2ccc(NC(=O)CS(=O)(=O)c3ccccc3)cc2s1	7%
O=C1CC(c2cccc([N+](=O)[O-])c2)c2c(ccc3ccccc23)N1 (stereo unspecified)	-18%
CCN(CC)C(=O)N1CCN(C)CC1	-12%&-3%
N#Cc1ccccc1CN1C(=O)c2ccccc2Sc2ccc(C(=O)OCc3ccco3)cc21	-7%
Cc1cc(NC(=O)COC(=O)C2CC(=O)N(c3ccc(Cl)cc3)C2)no1 (stereo unspecified)	4%
COc1ccc(-c2csc(NC(=O)C3=NN(c4ccccc4)C(=O)CC3)n2)cc1	0%
CCOC(=O)c1csc(N)n1	-10%
Cc1ccc(C)c(N(C(=O)c2csnn2)C(C(=O)NC2CCCCC2)c2ccccn2)c1 (stereo unspecified)	-12%
CCOC(=O)/C(C#N)=C/Nc1ccccc1OC	-11%
O=C(Nc1ccc(Nc2ccncc2)cc1)c1ccc(Nc2ccnc3ccc([N+](=O)[O-])cc23)cc1[N+](=O)[O-]	46%[activator]
CCc1c(C)sc2c1CCN(C(=O)Nc1cc(C)ccc1C)C2c1ccc(OC)cc1 (stereo unspecified)	-1%
CCOc1ccc2nc(N3CCC(C(=O)Nc4c(C)cccc4C)CC3)sc2c1	10%
COc1ccc(CNC(=O)C(=O)c2cn(CC(=O)N3CCOCC3)c3ccccc23)cc1	-1%
Nc1nc(NC(=O)c2cccc(S(=O)(=O)N3CCCCCC3)c2)nc(-c2ccccc2)n1	3%
Cc1ccc(N2C(=O)CSC23C(=O)N(CC(=O)NCCc2ccccc2)c2ccccc23)cc1C (stereo unspecified)	10%
Cc1csc2ncnc(NNC(=O)c3ccc(Cl)cc3)c12	23%
COc1ccc(CCNC(=O)C(=O)N2CCCC2)cc1OC	-7%
COc1ccccc1OCCC(=O)N1CCN(c2ccccc2OC)CC1	10%
Cc1ccccc1CNC(=O)CN1C(=O)C2CCCCN2c2ccc(C(=O)N3CCCC3)cc21 (stereo unspecified)	2%
Cc1ccc(NC(=S)NC(=O)c2ccc(-c3ccc(Cl)cc3)o2)c(O)c1	10%
CCc1cccc(NC(=O)CSc2ncc3c(n2)-c2cc(Cl)ccc2N(C)S3(=O)=O)c1	9%
O=C(C1CCCC1)N1CCN(S(=O)(=O)c2ccc(Cl)cc2)CC1	-9%
